Bioassay records from PubChem.
VACV mCherry inh = qHTS for Stage-Specific Inhibitors of Vaccinia Orthopoxvirus: mCherry Reporter Primary qHTS; Potency, µM (highest dose often 36.5 µM), for inactives: at the highest dose activity change, negative = inhibition, most hits filed as inhibitors; AID 720579, 2013; actives 0.63% (n = 310,000); Vaccinia virus mCherry reporter infection, fluorescence; about a quarter of the inactives have no number; active = well fitted inhibition curve with a large enough effect; inconclusive = small, poorly fitted or top-dose-only effect; inactive = no such curve, though single readings can be large or run the other way; tested in A549 cells; also: nearly all actives have a fitted effect of over 35% in size; inactives centre near -10
Vaccinia Venus = qHTS for Stage-Specific Inhibitors of Vaccinia Orthopoxvirus: Venus Reporter Primary qHTS | Vaccinia virus Venus reporter expression, fluorescence | Potency, µM (doses to about 36.5 µM), without a hit: at the top dose activity change, negative = inhibition, actives largely listed as inhibitors | actives 0.46% (n = 330,000); active means well fitted inhibition curve with a large enough effect; inconclusive means small, poorly fitted or top-dose-only effect; inactive means no such curve, though single readings can be large or run the other way; tested in A549 cells; also: nearly all actives have a fitted effect of over 30% in size; inactives centre near -10
The depositor's hits bear a star; i = inactive; ? = inconclusive; nt = not tested or not shown; & = joins results of further samples; [ ] = dose if it differs, or a comment. % is scaled to controls: 0 for no effect and ±100 for the full control effect; potency is read from the fitted curve at half-maximal effect.

cpd	canonical_smiles	VACV mCherry inh	Vaccinia Venus
1	CSc1ccccc1-c1n[nH]c(=S)o1	0%	-4%
2	CCCN(CCC)CCCNC(=O)CC1Nc2ccccc2NC1=O (configuration not stated)	nt	-3%
3	Cc1ccc(CSCC(=O)N2CCN(Cc3ccc4c(c3)OCO4)CC2)cc1	-23%	-27%
4	CN1CCN(c2nc(-c3ccccc3)ncc2S(=O)(=O)c2ccccc2)CC1	-1%	-16%
5	O=C(C[N+]12CN3CN(CN(C3)C1)C2)c1ccc(I)cc1	i	-18%
6	O=C(CN1C(=O)C2CC=CCC2C1=O)OCC(=O)c1ccc(Cl)c([N+](=O)[O-])c1 (configuration not stated)	-13%	-10%
7	CCC(=O)Nc1ccccc1Sc1ncnc2scc(-c3ccccc3)c12	i	-9%
8	O=C(Cn1c(=O)nc(-c2ccccc2)c2cc(Cl)ccc21)NCCc1ccc(Cl)cc1	-10%	-11%
9	Cc1oc(-c2ccc(Cl)cc2)nc1Cn1c(=O)cc(-c2ccccc2)c2c(C)nn(C)c21	0%	-5%
10	CCCCCCCCN1C(=O)[C@H](CC(=O)NCCCN2CCCC2=O)C[C@@]2(C(=O)OC)CC(C)(C)CC=C12	?	?
11	O=C(NCc1nnc2n1CCN(C(=O)/C=C/c1ccccc1)CC2)c1cccc(F)c1	-12%	-4%
12	O=C(Nc1ccccn1)c1ccccc1	-14%	-2%

Along the list, as entered above:
Vaccinia Venus, entries 1 to 5 → -4%, -3%, -27%, -16%, -18%
VACV mCherry inh, entries 1 to 5 → 0%, nt, -23%, -1%, i

(continued)
cpd	canonical_smiles	VACV mCherry inh	Vaccinia Venus
13	CCOc1ccc(CNC(=O)C2CCCN(S(=O)(=O)N3CC(C)CC(C)C3)C2)cc1OC (configuration not stated)	-16%[7.34 µM]	-7%[7.34 µM]
14	Cn1nnc2cc(C(=O)NCCC3=CCCCC3)ccc21	-15%	-15%
15	CCc1cccc2c(C#N)cn(CC(=O)NCCOC)c12	-23%	-9%
16	COc1ccc(NC(=O)CSc2ncc(-c3ccc(Cl)cc3)[nH]2)cc1OC	-11%	-8%
17	CC(C)CC(=O)N(c1ccc(F)cc1)C1C=CS(=O)(=O)C1 (configuration not stated)	-1%	-23%
18	Cc1ccc(C(=O)Nc2nc(=O)n(C(=O)c3ccccc3Cl)s2)cc1	-10%	-5%
19	Cc1cc(C)c2c(N=NN3CCOCC3)[nH]nc2n1	-22%	-7%
20	O=C(c1ccc2c(c1)N(Cc1c(F)cccc1Cl)C(=O)c1ccccc1S2)N1CCC2(CC1)OCCO2	-6%	-5%
21	Cc1ccc(S(=O)(=O)N/N=C/c2c(F)cccc2Cl)cc1	-25%	-15%
22	C=CCc1cccc2cc(C(=O)NC)c(=O)oc12	nt	-30%
23	CCC1CCCCN1C(=O)C1CC(c2cc(Cl)c(OC)cc2OC)=NO1 (configuration not stated)	-9%	-8%
24	C/C(=N\NC(=O)c1cccc(N/N=C(\C)c2ccco2)c1)c1ccco1	-3%	-6%
25	Cc1ccc(S(=O)(=O)c2cn(C)c3cc(N4CCCCCC4)c(F)cc3c2=O)cc1	-12%	-21%
26	CCN(C(=O)Cc1nc(N)n[nH]1)C1(C(=O)Nc2ccccc2)CCCCC1	-15%	-4%
27	C=CC[C@H](CC(=O)NCCO)C(=O)N[C@H](COC(=O)[C@@H](CC=C)Cc1ccc(F)cc1)c1ccccc1	i	-12%
28	O=C(NNC(=O)c1cccc(-n2cnnn2)c1)c1ccccc1	-15%	-2%
29	CC(NS(=O)(=O)c1cccc(Cl)c1F)[C@H](O)c1ccccc1 (some centres not stated)	i	-14%
30	O=S(=O)(c1ccccc1C(F)(F)F)N1CCOCC1	nt	-14%
31	CCOCCCNC(=O)c1ccc(-n2c(-c3ccccc3)cc3c2CCC(C)C3)cc1 (configuration not stated)	-19%	-15%
32	Cc1ccc(-c2csc3ncnc(Oc4ccc5c(C)cc(=O)oc5c4)c23)cc1	i	-9%
33	COc1ccc(N(C)S(=O)(=O)c2cccc(C(=O)OCC(=O)Nc3cc(C)ccc3OC)c2)cc1	i	-5%
34	COc1ccccc1NC(=O)C1=C(C)Nc2nc3ccccc3n2C1c1ccccc1Cl (configuration not stated)	-20%	-14%
35	CCOc1ccc(NC(=O)C(C)N2C(=O)c3ccccc3S2(=O)=O)cc1 (configuration not stated)	-4%	-11%
36	O=C(Nc1ccc(Cl)cc1)N(Cc1nc2ccccc2c(=O)[nH]1)Cc1cccs1	-27%	-28%
37	CC(=O)c1cccc(NC(=O)NCCc2ccc(Cl)cc2)c1	i	-11%
38	CC(/C=C/c1ccco1)=N\NC(=O)c1cccnc1	-7%	-13%
39	CN(Cc1ccccc1)CC(O)COc1ccc(CNCCc2ccncc2)cc1 (configuration not stated)	?	-18%
40	FC(F)(F)c1ccccc1NC(=S)NC1CCN(Cc2ccccc2)CC1	-7%	-1%
41	CCc1ccc(N2CC(C(=O)N/N=C/c3cc([N+](=O)[O-])ccc3O)CC2=O)cc1 (configuration not stated)	-20%	-23%
42	O=C(O)CSCC(=O)Nc1ccc(C(=O)O)cc1	-15%	-17%
43	c1ccc(CN2CCN(CCOCCOc3cccc4ccccc34)CC2)cc1	-16%	-12%
44	Cc1csc2ncc(C(=O)NC(C)c3ccccc3)c(=O)n12 (configuration not stated)	4%	6%
45	Cc1ccc(N2C(=O)C3NN=C(C(=O)OCc4ccccc4)C3C2=O)cc1 (configuration not stated)	-7%	6%
46	CCCNC(=O)CCn1nc(-c2ccccc2)c2ccccc2c1=O	-15%&-9%	-7%&19%
47	COc1ccc(-c2noc(-c3ccc(NC4CCCCC4)c([N+](=O)[O-])c3)n2)cc1OC	-6%	0%
48	Cc1nc(N2CCN(c3ccccc3)CC2)[nH]c(=O)c1CCC(C)C	i	-13%

A second format for 2 compounds above:
#39 CN(Cc1ccccc1)CC(O)COc1ccc(CNCCc2ccncc2)cc1 (configuration not stated)
  VACV mCherry inh = ?; Vaccinia Venus = -18%

#40 FC(F)(F)c1ccccc1NC(=S)NC1CCN(Cc2ccccc2)CC1
  VACV mCherry inh = -7%; Vaccinia Venus = -1%

New compounds follow.
cpd	canonical_smiles	VACV mCherry inh	Vaccinia Venus
49	C#CCOCCOCCOCCNc1nc(N2CCN(C(=O)[C@H](C(C)C)n3cc(CCO)nn3)CC2)nc(N2CCN(C(=O)[C@H](CCCCN)n3cc(CCCC)nn3)CC2)n1	i	0%
50	Cc1coc2c(C)c3oc(=O)c(CCC(=O)NCCN4CCOCC4)c(C)c3cc12	5%	1%
51	Cc1cccc(C)c1OCCn1c(C2CC(=O)N(Cc3ccc(F)cc3)C2)nc2ccccc21 (configuration not stated)	-26%	-16%
52	O=C(N/N=C/c1cccnc1)c1cccc(S(=O)(=O)N2CCCC2)c1	i	-6%
53	CCOC(=O)c1sc2nc(C)cc(-c3ccccc3)c2c1N	i	-17%
54	COc1ccccc1N1CCN(C(=O)CCn2cnc3onc(-c4ccc(F)cc4)c3c2=O)CC1	8%	15%
55	COc1cccc(-n2nnnc2SCC(=O)Nc2cccc(C)n2)c1	i	-11%
56	COc1cccc(N2C(=O)NC(=O)/C(=C/c3ccc4c(c3)Cc3ccccc3-4)C2=O)c1	i	-15%
57	CCN(CC)C(=O)C1=C(C)N(Cc2ccc(F)cc2)C(=O)C(CC(=O)NC2CCCCC2)C1 (configuration not stated)	-20%	-19%
58	O=S(=O)(c1ccc(Cl)cc1)N1CCN=C1SCc1cccc(Cl)c1	-6%	-26%
59	CCOC(=O)c1cc2sc(C)cc2n1CC(=O)N1CCOCC1	i	-7%
60	Cc1ccc(O)c(NC(=O)COc2cc(C)ccc2C)c1	-4%	-15%
61	Cc1noc(C)c1C(=O)N1CCC1(C)C(=O)NS(=O)(=O)c1ccc(Cl)cc1 (configuration not stated)	33%[activator]	-8%
62	CCOC(=O)/C=C/C(=O)OCC(=O)Nc1ccc(Cl)cn1	nt	2%
63	Nc1cccc2c1C(=O)N(C(=O)c1cccc(S(=O)(=O)N3CCCC3)c1)C2=O	-20%	-10%
64	CCc1ccc(NC(=O)c2cnc3scc(C)n3c2=O)cc1	-14%	-25%
65	CCOc1ccc(/C=C/c2nc(C#N)c(NCCCN(C)C)o2)cc1	-10%&-5%	-8%&-10%
66	COc1ccc(/C=C/C(=O)NCCSCc2ccco2)cc1	-15%	-4%
67	CCCCN(C)CCCNC(=O)Cn1c(=O)sc2ccccc21	-12%	-5%
68	CN1C(=O)C(=Cc2cccnc2)C(=O)N(C)C1=O	-17%	-14%
69	O=c1[nH]c(=S)c2[nH]c(=S)n(-c3ccccc3)c2[nH]1	-3%	0%
70	Fc1ccc(-c2ccc(CNCc3ccccn3)o2)cc1	0%	-14%
71	CCOc1ccccc1NC(=O)Cn1c(=O)n(-c2ccc(C)c(C)c2)c(=O)c2oc3ccccc3c21	-19%	-17%
72	Cc1nc(C(C)(C)O)n(-c2ccccc2)n1	-19%	-10%
73	COc1cc(CC(=O)OCC(=O)Nc2cc([N+](=O)[O-])ccc2Cl)cc(OC)c1OC	-14%	-9%
74	CCN(CC)CCOC(=O)c1ccc(NC(=O)c2cc3cccc(OC)c3oc2=O)cc1	-9%	-10%
75	CC(=O)N1c2ccc(S(=O)(=O)NCC3CCC(C(=O)Nc4cc(C)cc(C)c4)CC3)cc2CC1C (configuration not stated)	?	-26%
76	CCOC(=O)c1cncn1[C@@H](C)c1ccccc1	-10%	-7%
77	CCCC(C(=O)Nc1ccc(S(=O)(=O)Nc2ncccn2)cc1)c1ccccc1 (configuration not stated)	-4%	-18%
78	COc1ccc(Cn2c(N)c(C#N)c3nc4ccccc4nc32)cc1OC	-1%	1%
79	Cc1c(Cl)cccc1NC(=O)CN1C(=O)c2ccccc2Sc2ncccc21	-15%	-5%
80	CCNC(=O)C1(C)CCN(C(=O)C(c2ccccc2)c2ccccc2)C1 (configuration not stated)	26%	-1%
81	Cc1cc(C)cc(NC(=O)CCn2ccnc2)c1	12%	-5%
82	Cc1ccc(SC2=NS(=O)(=O)c3ccccc32)c(C)c1	?	?
83	Cc1ccc(NC(=O)CC2Sc3ccccc3NC2=O)c(C)c1 (configuration not stated)	-27%	-16%
84	CN1C(=O)C(C)(C)c2cc(S(=O)(=O)NCc3ccc(C(=O)NCc4ccco4)cc3)ccc21	-11%	2%
85	COC(=O)[C@@]1(C)[C@H]2C(=O)N(Cc3ccccc3)C(=O)[C@H]2[C@H]2CN=C(SC)N21	-11%	-22%
86	Brc1cccc(CNc2nc3ccccc3n2CCN2CCOCC2)c1	-12%	-4%
87	CSc1ccccc1NC(=O)COC(=O)Cc1ccsc1	-14%	-8%
88	COc1ccccc1CNC(=O)c1c(-c2ccccc2)nn(-c2ccccc2)c1C	-9%	-6%
89	CC1CCN(C(=O)/C=C/c2ccc(C(C)(C)C)cc2)CC1	-17%	-20%
90	Cc1nnc(SCC(=O)Nc2ccc(Cl)cn2)[nH]c1=O	nt	4%
91	CCOC(=O)/C(=N\Nc1ccc(Cl)cc1)c1csc(Nc2ccccc2)n1	?	-28%
92	O=C(OCCN=C1NS(=O)(=O)c2ccccc21)c1cccnc1	i	-10%
93	COc1ccc(-c2csc(C(C)(O)c3cccc(F)c3)n2)cc1OC (configuration not stated)	21%	-7%
94	COc1ccccc1N1CCN(C(=O)CSc2n[nH]c(-c3ccccc3Cl)n2)CC1	-18%	-16%
95	CCn1c(SCC(=O)Nc2cccc(O)c2)nc2c1c(=O)n(C)c(=O)n2C	-1%	-7%
96	O=C(COc1ccc(F)cc1)N(Cc1cccc(Br)c1)C1CCS(=O)(=O)C1 (configuration not stated)	-10%	-6%
97	CCNC(=O)C1(C)CCN(C(=O)c2cccs2)C1 (configuration not stated)	3%	-6%
98	CCN(CC)CCOC(=O)c1ccc(NC(=O)c2cc3cc(OC)ccc3oc2=O)cc1	2%	3%
99	Cn1ccc(C(=O)N/N=C/c2ccccc2[N+](=O)[O-])n1	-13%	-10%
100	O=C(c1cccc(Br)c1)c1conc1C(=O)c1ccco1	?	-16%
101	CCC(=O)NCCCOc1ccccc1	i	-11%
102	CCOC(=O)c1ccc(NNC(C)=O)c([N+](=O)[O-])c1	-10%	-13%
103	CCC(C(=O)Nc1cc(C)nn1-c1nc(C)cc(C)n1)c1ccccc1 (configuration not stated)	-25%	?
104	CCO[C@@H]1OC(C(=O)NCc2ccccc2)=C[C@H](C)[C@H]1CCCO	-1%	-9%
105	CC(=O)C1C(c2cccc(Oc3ccccc3)c2)NC(=O)NC1(O)C(F)(F)F (configuration not stated)	-9%	2%
106	O=C(Cn1nnc(-c2ccccc2NC(=O)C2CC2)n1)NC1CCCCC1	i	-15%
107	COc1ccc(C(=O)C2CCCN(Cc3ccc4nonc4c3)C2)cc1OC (configuration not stated)	-23%	8%
108	CC(OC(=O)c1cc2c(ccc3ccccc32)oc1=O)c1nc2ccccc2s1 (configuration not stated)	-14%	-2%
109	Nc1nc2ccc(OC(F)(F)F)cc2s1	-12%	-21%

4 structures already listed, ordered by molecular weight, descending.
cpd	canonical_smiles	VACV mCherry inh	Vaccinia Venus
98	CCN(CC)CCOC(=O)c1ccc(NC(=O)c2cc3cc(OC)ccc3oc2=O)cc1	2%	3%
108	CC(OC(=O)c1cc2c(ccc3ccccc32)oc1=O)c1nc2ccccc2s1 (configuration not stated)	-14%	-2%
105	CC(=O)C1C(c2cccc(Oc3ccccc3)c2)NC(=O)NC1(O)C(F)(F)F (configuration not stated)	-9%	2%
109	Nc1nc2ccc(OC(F)(F)F)cc2s1	-12%	-21%
